Screens as filed in PubChem BioAssay.
Rce1 inh: blocks yeast Ras-converting enzyme; Q03530; yeast membranes, quenched prenylated peptide cleavage fluorescence; 0.27% of 290,000 active; calls only;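 active = fall in fluorescence gain of 50% or more versus controls, with final raw signal at or below 3038400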;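 also: plate controls were neutral control wells for no effect and wells lacking membranes for full effect; tested at 10 µM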
Target sequence (Q03530 whole entry, looked up): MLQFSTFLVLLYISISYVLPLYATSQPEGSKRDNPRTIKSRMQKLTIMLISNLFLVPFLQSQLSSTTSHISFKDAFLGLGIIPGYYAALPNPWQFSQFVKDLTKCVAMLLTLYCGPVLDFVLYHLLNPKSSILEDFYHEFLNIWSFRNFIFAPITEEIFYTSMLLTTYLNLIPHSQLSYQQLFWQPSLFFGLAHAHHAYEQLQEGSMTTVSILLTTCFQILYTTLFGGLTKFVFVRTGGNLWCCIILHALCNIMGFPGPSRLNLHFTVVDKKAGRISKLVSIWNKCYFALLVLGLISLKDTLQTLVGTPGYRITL
HIV Env fusion: inhibitors of HIV Env-mediated cell fusion; HeLa-JRFL Env/CEM21 cell fusion, luciferase; inhibition, % at 12.3 µM; 1.1% of 360,000 active; AID 651610;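 active = mean replicate inhibition score of at least 50 and every replicate individually at or above 50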;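 also: 0% = plate neutral controls and 100% = maraviroc near 300 nM; one replicate is shown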
eIF4H FP inh: inhibitors of RNA binding by human eIF4H; Q15056; eIF4H fluorescence polarization binding assay; inhibition, % at 35 µM; 0.94% of 290,000 active; AID 2012;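 active = 50% or more with normal probe brightness, or confirmed in later tests; about a fifth of its hits are not listed in these tables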;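 also: calls also rest on retests at 20 µM and on dose response follow-up; 0% = protein and probe with vehicle and 100% = probe without protein; strong numbers were not always called active; many hits fall short of the cut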
MT1-MMP act inh: inhibitors of human MT1-MMP activation; P50281; HT1080 RFP-PRO-GFP cells, GFP/RFP ratio fluorescence, overnight; percent of plate control window, DMSO zero; GFP/RFP ratio change, % at 20 µM; 0.061% of 360,000 active; AID 651647;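 active = GFP/RFP ratio change of at least 30% with cell ATP level not reduced by more than half and red fluorescence within 50% of control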; also: strong numbers were not always called active
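Assay system: RFP-PRO-GFP reporter HT1080 cells; read-out basis: GFP/RFP fluorescence ratio; benchmarks: DMSO wells and RFP-L50D-GFP cells; doses: 20 µM single dose, 1% DMSO; schedule: overnight cell settling, then overnight compound exposure, 37 °C, 5% CO2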
Yeast UUG start: modulators of start codon recognition fidelity in yeast; S. cerevisiae UUG-firefly luciferase reporter, luminescence/redox ratio; activity score, % at 18.7 µM; 0.13% of 350,000 active; AID 602363;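 active = replicate mean at a twofold rise or more, about +100% in these data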;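 also: firefly luciferase made from a UUG start codon reports start codon fidelity; reporter light over untreated wells divided by growth signal over untreated wells; some hits fall short of that in this replicate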
CSC inhib: blocks cancer stem cells; cancer stem cell-like cells viability, luminescence; inhibition, % at 7.5 µM; 1.1% of 300,000 active;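 active = mean at 75% or more and at least half the replicates too; tested in HMLE shEcad cells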;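 also: 0% = median of negative and 100% = median of positive control wells; the first replicate is given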
PABP FP inh: PABP-poly(A) binding inhibition; P11940; PABP-poly(A) RNA binding, fluorescence polarization; inhibition, % at 35 µM; 1% of 290,000 active; AID 2014;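 active = 50% or more with normal probe brightness, or confirmed in later tests; about a fifth of its hits are not listed in these tables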;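 also: calls also rest on retests at 20 µM and on dose response follow-up; controls were probe without protein and protein plus probe with vehicle; some compounds called inactive have numbers as strong as hits; many hits fall short of the cut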
Target sequence (P11940 whole entry, looked up): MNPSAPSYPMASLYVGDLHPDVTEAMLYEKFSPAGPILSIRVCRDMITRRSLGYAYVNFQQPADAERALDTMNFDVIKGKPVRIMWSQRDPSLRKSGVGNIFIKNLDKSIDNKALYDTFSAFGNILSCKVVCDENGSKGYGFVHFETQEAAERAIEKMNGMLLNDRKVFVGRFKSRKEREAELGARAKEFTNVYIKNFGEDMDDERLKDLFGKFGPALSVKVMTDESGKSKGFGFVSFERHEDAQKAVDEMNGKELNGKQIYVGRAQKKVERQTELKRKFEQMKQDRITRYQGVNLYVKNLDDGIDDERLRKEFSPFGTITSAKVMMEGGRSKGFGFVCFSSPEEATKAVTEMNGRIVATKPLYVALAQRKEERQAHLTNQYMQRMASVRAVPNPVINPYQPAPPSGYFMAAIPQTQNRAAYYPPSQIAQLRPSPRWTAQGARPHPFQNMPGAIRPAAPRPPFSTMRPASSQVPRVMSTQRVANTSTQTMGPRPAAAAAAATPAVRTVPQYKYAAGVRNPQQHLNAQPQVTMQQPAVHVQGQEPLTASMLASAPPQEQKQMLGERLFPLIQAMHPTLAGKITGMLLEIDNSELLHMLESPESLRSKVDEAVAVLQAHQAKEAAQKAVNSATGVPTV
eIF4H FP inh retest: further read-out of eIF4H FP inh, marked with its call; inhibition, %; compound at 20 µM; confirmation average;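 mean of two retest wells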
PABP FP inh retest: second read-out of PABP FP inh, no call of its own (marks repeat the call); inhibition, %; compound at 20 µM; confirmation repeats;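 mean of two retest wells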
MT1-MMP act inh RFP: also measured in MT1-MMP act inh; calls as there; RFP signal change, %; measured here: RFP expression control read;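 0 = vehicle wells; hits needed this value within 50% of zero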
The depositor's hits bear a star; i = inactive; / = no result given.

SMILES	Rce1 inh	HIV Env fusion	eIF4H FP inh	MT1-MMP act inh	MT1-MMP act inh RFP	Yeast UUG start	CSC inhib	PABP FP inh	others
Cc1ccccc1C(=O)Nc1ccnn1C1CCN(Cc2cccnc2)CC1	i	-14	0	3	8	-18	6	8
Cc1cc(=O)oc(C)c1C(=O)NCc1ccc(F)cc1	i	-23	0	-6	0	2	11	28
Cn1c(Cc2cccs2)nnc1SCC(=O)Nc1ccc(C(N)=O)cc1	i	-9	/	2	0	/	-16	/
COc1cc(-c2nc3ccccn3c2/N=C/c2cccc(F)c2)ccc1O	i	-8	5	-1	2	/	-3	5
NC(=O)c1cccnc1OCC(F)(F)F	i	-1	-8	/	/	-9	-1	6
CSc1cc(-c2ccc(Cl)cc2)c(C(=O)NC(C)C)s1	i	/	0	-4	-4	-24	-5	-4
COC(=O)CC1(C(=O)OC)Oc2ccc(Br)cc2C(=O)N1c1cc(Cl)cc(Cl)c1 (stereo not given)	i	17	-12	6	1	/	6	-1
Cc1cc(OCc2cc3c(cc2Cl)OCO3)c2c(C)cc(=O)oc2c1	i	-5	-3	-4	-7	/	6	2
COC(=O)c1cc(CNC(=O)c2ccc(N3CCCC3)c([N+](=O)[O-])c2)ccc1OC	i	-53	22	3	-2	-1	-3	54*	eIF4H FP inh retest=39;PABP FP inh retest=62*
CCOc1cc2c(cc1C=O)OC(C)C2 (stereo not given)	i	5	-3	7	3	13	10	3
O=C(OCc1c(-c2ccccc2)ncc2ccccc12)N1CCOCC1	/	6	/	-1	-2	-15	-3	/
CCC(C)(C)NC(=O)Cn1c(-c2ccc(C)cc2)noc1=O	i	9	-10	-2	1	-13	-5	1
O=C(C[C@H]1C/C=C\C[C@H](NC(=O)OCC2c3ccccc3-c3ccccc32)C(=O)OC[C@H](Cc2ccccc2)NC1=O)N[C@H](CO)Cc1ccccc1	/	0	/	6	3	-15	/	/
COc1ccc(-c2cc(C(=O)Nc3ccccc3SC)no2)cc1	/	-19	-4	5	11	-9	8	-8
Cc1cccc(Cn2c(C(=O)OC(C)C)cc3c2ccn3C)c1	i	23	3	-5	1	-50	/	11
CSc1ncccc1C(=O)OCC(=O)NC(=O)NCCC(C)C	i	-60	-6	-5	-2	/	-8	-6
COCCNC(=S)N1CCN(C/C=C/c2ccccc2)CC1	i	14	2	3	-2	/	9	-4
Cc1sc2ncnc(SCC(=O)NC(C)(C)C)c2c1C	i	0	-9	0	0	13	-14	-6
CCNC(=O)NC(=O)C(C)OC(=O)CCCSc1nc2ccccc2s1 (stereo not given)	i	4	-4	0	5	-23	-13	-3
CCCc1[nH]n(-c2ccc(F)cc2)c(=O)c1C=Nc1cccc(F)c1	i	-34	3	-13	-16	-14	17	5
COc1cccc(-c2cc3c(-n4cccc4)ncnc3o2)c1	i	/	-7	-13	-3	-16	/	-10
Cc1ccc(S(=O)(=O)n2ccc3c2CCCC3=O)cc1	i	20	-4	4	5	-11	-6	-12
O=[N+]([O-])c1cc(-c2nnc(Nc3ccccc3)c3ccccc23)ccc1N1CCOCC1	/	10	6	6	-5	/	31	-4
Cc1cccc(Cn2cnc3c(N)c(C)c(C)cc32)c1	i	-7	-4	0	3	/	5	-14
CCN(CC)S(=O)(=O)c1ccc2c(c1)nc(CCC(=O)Nc1ccc(N3CCOCC3)cc1)n2C	i	-5	-5	-5	3	/	/	2
Cc1ccccc1NC(=O)Cc1nc(COC(=O)COc2cccc(C)c2C)cs1	i	6	/	-1	4	/	-14	/
COc1ccc(S(=O)(=O)N2CCOC2CNC(=O)C(=O)NCCc2ccccc2)cc1C (stereo not given)	i	/	0	-2	-5	5	3	-7
CCOc1cc2[nH]c(=O)n(CCCC(=O)NCc3ccc(OC)cc3)c(=O)c2cc1OCC	i	-22	0	6	3	-21	-8	6
CCc1ccc(NC(=O)Cn2nc(C(=O)O)c3ccccc3c2=O)cc1	i	12	-16	0	1	-13	-15	-11
CCc1noc(C)c1C(=O)OCC(=O)NC(=O)c1ccccc1OC	i	-7	-9	-1	5	-41	/	-4
O=C(Cn1cc(C(=O)c2ccco2)c2ccccc21)NC1CCCCC1	i	2	4	-2	-8	-3	/	-1
COc1ccc(C(=O)Oc2ccc3ccc(=O)oc3c2)cc1OC	i	-8	8	-2	-3	-12	-5	9
O=C(c1cccs1)c1c[nH]cc1-c1ccccc1	i	-13	/	-4	-1	-10	-11	/
O=C(O)c1cc(=O)n(Cc2ccccc2)c(=O)[nH]1	i	-14	1	-2	1	-5	5	-4
Cn1c(S(=O)(=O)O)nc2ccccc21	i	-3	-6	-2	4	/	-1	-1
COc1ccc(C(=O)N2CCCC(c3ccccc3)=N2)cc1	i	-18	3	0	0	/	-9	-6
O=C(CN(C(=O)CNS(=O)(=O)c1ccccc1)c1ccc2c(c1)OCCO2)NCc1ccco1	i	/	2	-3	1	-17	-4	1
CC1Cc2ccccc2N1C(=O)COC(=O)Cc1ccc(F)cc1 (stereo not given)	i	-6	/	-1	2	3	-1	/
Cc1ccc(-c2cc(C(=O)Nc3ccccc3C(N)=O)c3ccccc3n2)o1	i	-1	/	1	1	1	4	/
COc1cccc(NC(=O)C(OC(=O)/C=C/c2ccc3c(c2)OCO3)c2ccccc2)c1 (stereo not given)	i	-58	-7	-12	-12	-11	-3	-13

Arranged by length of the SMILES (largest number first): some entries from above
SMILES	Rce1 inh	HIV Env fusion	eIF4H FP inh	MT1-MMP act inh	MT1-MMP act inh RFP	Yeast UUG start	CSC inhib	PABP FP inh	others
O=C(CN(C(=O)CNS(=O)(=O)c1ccccc1)c1ccc2c(c1)OCCO2)NCc1ccco1	i	/	2	-3	1	-17	-4	1
CCc1ccc(NC(=O)Cn2nc(C(=O)O)c3ccccc3c2=O)cc1	i	12	-16	0	1	-13	-15	-11
CCc1noc(C)c1C(=O)OCC(=O)NC(=O)c1ccccc1OC	i	-7	-9	-1	5	-41	/	-4
CC1Cc2ccccc2N1C(=O)COC(=O)Cc1ccc(F)cc1 (stereo not given)	i	-6	/	-1	2	3	-1	/
Cn1c(S(=O)(=O)O)nc2ccccc21	i	-3	-6	-2	4	/	-1	-1

Next part.
SMILES	Rce1 inh	HIV Env fusion	eIF4H FP inh	MT1-MMP act inh	MT1-MMP act inh RFP	Yeast UUG start	CSC inhib	PABP FP inh	others
C(=N\Nc1ccccn1)/c1c[nH]c2ccccc12	i	-23	-1	7	-10	-8	14	2
NC(=O)c1ccccc1NC(=O)CCCc1ccccc1	i	2	-10	1	0	-16	-11	2
CC(=O)/C(=N/Nc1ccc(C)cc1)Sc1nnc(CCc2ccccc2)n1-c1ccccc1	i	-1	5	-7	-8	/	-7	-13
CC(O)[C@@H](C(=O)N1CCNCC1)n1cc(CCCCN)nn1 (stereo not given in full)	i	8	0	0	2	7	1	32
CC1CN(C(NC(=O)C(C)(C)C)C(Cl)(Cl)Cl)CC(C)O1 (stereo not given)	i	/	-3	4	8	-3	-3	-14
Cc1ccc(N2C(=O)c3ccc(C(=O)N4CCOCC4)cc3C2=O)cc1C	i	-57	1	1	4	-9	6	2
O=C(Nc1cc(S(=O)(=O)N2CCOCC2)ccc1O)c1ccc(NS(=O)(=O)c2ccc(Cl)s2)cc1	i	/	-8	-2	9	/	-3	-2
CC(C)CCC(=O)N1CCOC1=O	i	-18	1	3	6	-10	-8	15
COc1ccc(S(=O)(=O)N2CCCC(C(=O)NCc3ccccn3)C2)cc1 (stereo not given)	i	/	-6	4	3	-10	-11	11
Cc1cnc(C(=O)OCC(=O)NC(C)CCc2ccccc2)cn1 (stereo not given)	i	-12	-23	-1	6	/	/	0
CCOc1ncccc1C(=O)NCCc1ccc(S(N)(=O)=O)cc1	/	4	-6	2	3	-12	-4	-5
O=C(Nc1cccc(C(F)(F)F)c1)c1cc(-c2ccc(F)cc2)on1	i	7	-9	3	1	/	/	-1
COc1ccc(OCC(O)Cn2c(=N)n(Cc3ccccc3)c3ccccc32)cc1 (stereo not given)	i	-25	-6	-10	-7	5	16	-6
O=C1OC(CCl)CN1Cc1c(Cl)cccc1Cl (stereo not given)	i	12	/	3	3	/	-7	/
c1ccc(-c2noc(-c3cccs3)n2)nc1	i	/	0	0	1	-54	15	-2
O=C(CSc1nc2ccccc2s1)NCCOc1ccc(Cl)cc1	i	-2	-10	2	0	-15	25	4
COC(=O)c1c(NC(=O)CN2CCCC(C)C2)c2c(C)cccc2n1C (stereo not given)	i	/	-7	1	3	0	-5	12
COc1ccc(CN2CCSCC2)c(C)c1C	i	2	9	4	3	-6	-1	1
CCN(Cc1ccccc1)C(c1cccs1)c1nnnn1C1CCCCC1 (stereo not given)	i	96*	-6	-29	-26	/	39	-10
CC(C)(C)C1CCC(OC(=O)CN2CCCCC2)CC1 (stereo not given)	i	2	-4	3	7	/	-8	-11
CC(C)NS(=O)(=O)c1ccc(OCC(=O)Nc2ccc(F)cc2)cc1	/	10	-5	1	2	/	-4	1
CCN(CC)CCCNC(=O)C(C)Sc1nc(-c2ccccc2)cc(C(F)(F)F)n1 (stereo not given)	i	3	39	2	3	-15	49	20
CC(=O)C1=C(C)N(Cc2ccco2)C(=O)C1(NC(=O)C1CCCCC1)C(F)(F)F (stereo not given)	i	-164	4	0	-2	-19	-7	-2
CC(OC(=O)CN1C(=O)c2ccccc2C1=O)C(=O)NCc1ccccc1 (stereo not given)	i	-13	-2	2	4	3	/	-4
CC1=CC(C)(C)N(C)C(=O)N1c1ccc(Cl)cc1	i	/	2	-4	1	0	-7	-6
Cc1c(Cl)cccc1NC(=O)C(=O)NNS(=O)(=O)c1ccc(F)cc1	i	/	3	2	5	-20	-10	-8
Cc1cc([N+](=O)[O-])cnc1NC(C)c1ccccc1 (stereo not given)	i	-37	5	1	-3	-26	-2	2
CCc1ccccc1C1=CC(=O)C[C@H](c2ccc(OC)cc2)C1	/	1	/	4	-3	-22	/	/
Cc1cc(Cl)ccc1OCC(=O)OC(C)C(=O)N(C)C (stereo not given)	i	/	10	1	3	-3	2	10
CC1(c2nnc(Cc3ccccc3)o2)CC(c2ccc([N+](=O)[O-])cc2)=NO1 (stereo not given)	i	-20	5	4	5	-5	18	-4
COC(=O)c1[nH]c2cc(OC)c(OC)cc2c1NC(=O)Oc1ccccc1	i	/	-1	5	8	/	-4	0
NC(=O)c1ccccc1NCC(=O)c1ccc(F)cc1	i	-7	10	0	4	/	-2	2
O=C(COc1ccc(Br)cc1)c1ccc2c(c1)CCCC2	i	/	-9	4	3	-5	11	-11
O=C(Nc1ccccc1)N1CCN(c2ccc(F)cc2)CC1	i	/	-10	5	4	-13	-1	-15
Cc1ccn(CCC(=O)Nc2ccc3c(c2)OCO3)n1	i	-8	-4	1	6	-6	-18	-6
Cc1cccc(NC(=O)CN(CC2CCCO2)C(=O)c2cc(S(=O)(=O)N(C)C)ccc2F)c1C (stereo not given)	/	/	/	-1	-2	8	-3	/
CN1CCc2nc3sc(C(=O)C45CC6CC(CC(C6)C4)C5)c(N)c3cc2C1	/	/	67	-19	4	3	60	42	eIF4H FP inh retest=33;PABP FP inh retest=45
COc1ccc2cc(-c3ccccc3)ncc2c1	i	-193	0	6	2	-22	-3	-8
COc1cc(C)c(CN2CCN(C(C)C(=O)NC(C)c3ccccc3)CC2)cc1OC (stereo not given)	i	3	-14	0	2	2	-22	-9
Nc1ncnc2c1ccn2[C@H]1CN(Cc2ccc(Cl)cc2)C[C@@H](CO)O1	/	30	/	-8	-15	-10	/	/
CC1Cc2cc(S(=O)(=O)N3CCC(C(=O)N4CCN(c5ccccc5F)CC4)CC3)ccc2N1C(=O)C1CC1 (stereo not given)	i	37	6	-6	-13	-6	15	4

An excerpt; count on the stated rates, not on these rows.
